RecA splice inh = blocks M. tuberculosis RecA intein splicing; cell-free RecA intein splicing, fluorescence; inhibition, %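 (about 9 µM by stock and volumes)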; actives 0.75% (n = 290,000); in the data active means inhibition above about 30%; inconclusive means no clear call, values can overlap the other calls;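 further: 0% = vehicle wells and 100% = reference inhibitor control wells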
Target sequence (P9WHJ3 whole entry, looked up, canonical isoform): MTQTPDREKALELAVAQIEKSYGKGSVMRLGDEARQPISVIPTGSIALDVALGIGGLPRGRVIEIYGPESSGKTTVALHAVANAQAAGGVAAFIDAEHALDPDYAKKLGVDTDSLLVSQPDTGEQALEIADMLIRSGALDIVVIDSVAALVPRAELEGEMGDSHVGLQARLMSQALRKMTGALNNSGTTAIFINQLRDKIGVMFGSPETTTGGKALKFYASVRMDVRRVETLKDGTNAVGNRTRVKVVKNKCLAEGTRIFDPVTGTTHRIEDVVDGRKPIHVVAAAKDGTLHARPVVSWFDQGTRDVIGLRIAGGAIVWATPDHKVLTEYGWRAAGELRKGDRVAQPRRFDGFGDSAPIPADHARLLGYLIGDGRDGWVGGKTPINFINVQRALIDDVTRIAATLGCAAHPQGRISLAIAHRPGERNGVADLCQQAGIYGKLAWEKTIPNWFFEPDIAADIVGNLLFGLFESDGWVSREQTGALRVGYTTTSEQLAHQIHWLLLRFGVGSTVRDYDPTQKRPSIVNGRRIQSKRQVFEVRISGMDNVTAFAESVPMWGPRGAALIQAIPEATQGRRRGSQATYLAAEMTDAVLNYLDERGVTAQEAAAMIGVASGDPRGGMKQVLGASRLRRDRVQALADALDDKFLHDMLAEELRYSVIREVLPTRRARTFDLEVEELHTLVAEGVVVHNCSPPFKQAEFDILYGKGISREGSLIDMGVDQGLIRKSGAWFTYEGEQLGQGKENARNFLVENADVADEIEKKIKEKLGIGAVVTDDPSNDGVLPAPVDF
Mtb bLac sens = beta-lactam sensitization of Mtb H37Rv; M. tuberculosis H37Rv growth with meropenem, percent inhibition; hits of this screen are not shown here; inhibition, % at 25 µM; actives 0.27% (n = 330,000);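 active means about 74% or more and at least 40 points above the plate without the antibiotic, then above 30% in a dose series; inconclusive means first-round hits that could not be retested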;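 further: growth measured after seven days incubation then overnight dye step; 0% = bacteria only wells and 100% = bacteria with antibiotic; twin plates without the antibiotic show which effects depend on it; some results filed as inactive read as strong as hits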
YopH PTP inh = inhibitors of Yersinia enterocolitica YopH tyrosine phosphatase; inhibition, %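 (about 10 µM by stock and volumes)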; fluorescence Ex485/Em525; actives 0.16% (n = 140,000);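 active means inhibition of 50% or more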;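 further: controls were vehicle for no effect and minimum signal wells for full effect; inactives centre near -20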
Arbovirus anti = antivirals against arbovirus infection. arbovirus infection cell-based antiviral screen. inhibition, % at 10 µM. actives 0.37% (n = 200,000);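 active means inhibition from about 30%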;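 further: bluetongue infection of BSR cells; cell survival read as ATP light after 72 h; 0% = infected wells without compound and 100% = uninfected wells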
Mtb H37Rv = M. tuberculosis H37Rv growth inhibitors, H37Rv strain (AID 1626); actives 0.95% (n = 220,000); M. tuberculosis H37Rv growth inhibition; higher % means a stronger effect; inhibition, % at 10 µM, or IC50 in µM where a hit was titrated;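 active means confirmed in a dose series; inconclusive means inhibition above 80% but not taken into the dose series; inactive means below 80% or under 30% at every dose of the series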;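 further: bacteria incubated seven days before Alamar blue readout; 0% = bacteria only wells and 100% = bacteria with antibiotic wells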
Arbovirus anti repeat = also measured in Arbovirus anti; calls as there; inhibition, %; measured here: 10K subset replicate screen; many hits read low in the repeat;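 first of two repeat runs on a subset; 0% = infected and 100% = uninfected wells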
* marks the source's active call; other numbers are inactive results; ? = inconclusive; nt = no result given.

SMILES	RecA splice inh	Mtb bLac sens	YopH PTP inh	Arbovirus anti	Mtb H37Rv	others
C=CCN1CN=C(NS(=O)(=O)c2ccc(NC(C)=O)cc2)NC1	-1.8	1	nt	8	-5%
Cc1nnc(-c2cccc(Br)c2)c2cn(-c3ccccc3)nc12	-1.0	12	-25	-3	15%
CCOC(=O)NC1(NC2CCCCC2)Oc2ccccc2O1	-3.6	3	6	8	-7%
COc1ccc(-c2csc(C3=C(O)CN(Cc4ccc(Cl)cc4)C3=N)n2)cc1OC	4.6	50	9	-15	2%
Cc1nc(SCC(=O)c2ccc(Cl)s2)c2oc3ccccc3c2n1	-3.5	18	-45	8	-4%
CCOC(=O)N1CCN(C(=O)/C(=C/c2ccc(Cl)cc2)NC(=O)c2ccccc2)CC1	1.0	-2	nt	4	5%
COc1ccc(C2SCCN2C(=S)Nc2cccc(C(F)(F)F)c2)cc1 (configuration not stated)	0.6	8	-1	-15	3%
O=C(NCCc1ccccc1)C(NS(=O)(=O)c1cccc2nsnc12)c1ccccc1 (configuration not stated)	5.5	6	-30	-3	-2%
CCC1=NN(C(=O)c2cccc(Br)c2)C(O)(c2ccc(Br)cc2)C1 (configuration not stated)	18	84	7	-31	70%
O=C(CNC(=O)c1ccccn1)N/N=C/c1ccc2c(c1)OCO2	-1.9	2	nt	-5	4%
Cc1ccc(NC(=O)/C(=C\c2ccccc2)NC(=O)c2ccco2)cc1	3.5	-2	nt	nt	-2%
O=C(C1=NN[C@@H]2C(=O)N(c3cccc(C(F)(F)F)c3)C(=O)[C@H]12)c1ccc2ccccc2n1	-1.1	-4	-28	11	-4%
COC(=O)CCC(=O)Nc1ccc(Cl)c(Cl)c1	-0.5	-2	-44	2	-3%
CCn1ncc(/C=C/C(=O)Nc2c(C)nn(Cc3ccc(Cl)cc3Cl)c2C)c1C	-1.7	3	-6	2	3%
COc1ccc(N=C(C)C2=C(O)COC2=O)cc1	-2.4	90	-54	-11	76%	Arbovirus anti repeat=-6
CCCc1cc(=O)oc2cc(OCC(=O)NC3CC(C)(C)NC(C)(C)C3)ccc12	0.1	1	nt	nt	nt
O=C(CN1CCOCCOCCOCC1)Nc1ccccc1	0.8	3	0	11	-7%
CC1CN(S(=O)(=O)c2cccc(-c3cn4ccccc4n3)c2)CC(C)O1 (configuration not stated)	nt	-8	-38	-1	-7%
CC(Oc1ccc(Cl)cc1)C(=O)Nc1sccc1C(N)=O (configuration not stated)	3.4	4	nt	-7	0%
CCCn1nnc(NC(=O)c2ccc(F)cc2)n1	2.3	1	-3	2	-20%
CCCC(=O)Nc1ccc2nc(C)n(Cc3ccccc3Cl)c(=O)c2c1	-1.4	-3	nt	nt	nt
COCCN(CC1CCCN(C2Cc3ccccc3C2)C1)C(=O)CCSC (configuration not stated)	8.2	3	nt	nt	nt
Cc1ccc(CNC(=O)CSCc2cccc(F)c2)cc1	1.6	0	nt	-1	2%
COc1ccc(C2CC(=O)C(C=NCCCN3CCOCC3)=C(O)C2)cc1 (configuration not stated)	0.3	2	6	5	-4%	Arbovirus anti repeat=5
COc1ccc(NC(=S)NNS(=O)(=O)c2ccc3ccccc3c2)c(OC)c1	-4.4	1	nt	-3	0%

Arranged by molar mass (smallest number first): 3 of the compounds above
SMILES	RecA splice inh	Mtb bLac sens	YopH PTP inh	Arbovirus anti	Mtb H37Rv	others
CCCn1nnc(NC(=O)c2ccc(F)cc2)n1	2.3	1	-3	2	-20%
CC(Oc1ccc(Cl)cc1)C(=O)Nc1sccc1C(N)=O (configuration not stated)	3.4	4	nt	-7	0%
COc1ccc(-c2csc(C3=C(O)CN(Cc4ccc(Cl)cc4)C3=N)n2)cc1OC	4.6	50	9	-15	2%

Next part
SMILES	RecA splice inh	Mtb bLac sens	YopH PTP inh	Arbovirus anti	Mtb H37Rv	others
Cc1cc([N+](=O)[O-])nn1CC(=O)NNC(=S)Nc1ccc(F)cc1	-3.3	nt	0	14	nt
CC(=O)Nc1ccc(S(=O)(=O)/N=C2/NC(=O)/C(=C\c3ccco3)S2)cc1	1.5	-5	nt	10	-8%
Cc1ccc(O)c(C2=NNC(O)(C(F)(F)F)C2)c1 (configuration not stated)	-0.1	39	-17	12	9%
CCOC(=O)/C(=C\C=C\c1ccccc1)NC(=O)c1ccccc1	1.5	6	-15	-11	7%
CC1(C(=O)O)CCC(C(=O)Nc2ccccc2O)C1(C)C (configuration not stated)	-0.9	?	-6	7	-3%
COc1cccc(-c2cc(=O)c3cc(NC(C)=O)ccc3[nH]2)c1	-5.1	-7	-30	-8	-5%
CCC(=NCCCN1CCOCC1)c1c(O)n(Cc2ccccc2)c(=O)[nH]c1=O	1.4	-8	3	12	-7%
CC/C(=C1/C(=O)CC(C)(C)C(C(=O)OC)C1=O)N1CCCC1 (configuration not stated)	-0.5	1	-29	9	-2%
Cc1ccc(C(=O)Nc2ccc3c(c2)OCO3)cc1S(=O)(=O)N1CCCCC1	1.8	-1	-19	-12	6%
Cc1sc2nc(C3CC3)nc(N3CCN(C(=O)c4ccc(F)cc4)CC3)c2c1C	14	1	nt	nt	nt
CN(C(=O)c1ccccc1C(=O)OCC(=O)NCc1ccccc1)C1CCCCC1	-1.4	-1	-19	10	5%
CC1CCCN(C(=O)COC(=O)C2CCN(S(=O)(=O)c3ccc4c(c3)OCCO4)CC2)C1 (configuration not stated)	0.9	-1	nt	nt	nt
C=CCC1C=C(Cc2ccccc2)CC(CC=C)N1 (configuration not stated)	3.8	73	nt	16	-1%
O=C(COCc1cc(-c2ccc3c(c2)OCO3)on1)Nc1cccnc1	-4.5	68	nt	nt	nt
COc1cccc(N2C(=O)CC(c3c[nH]c4ccccc34)C2=O)c1 (configuration not stated)	2.0	-6	-24	0	-8%
Cc1ccc(NC(=O)CCn2cccc2)cc1C	-0.5	91	-41	-5	46%
CC1(C)N=C(N)N=C(N)N1c1ccc(F)cc1F	-1.3	-12	-3	16	-6%
CCn1cc(CNC(=O)c2cc(-c3cc(OC)ccc3OC)nc3ccccc23)c(C)n1	-1.0	4	-19	6	1%
COc1ccc(N2CCN(C(=O)CCc3c[nH]c4ccccc34)CC2)cc1	-3.9	1	nt	3	-4%
CCN(CC)CCN(C(=O)c1ccc(N2C(=O)CCC2=O)cc1)c1nc2cc3c(cc2s1)OCCO3	0.2	-4	nt	-3	0%
CCN(CC)S(=O)(=O)c1ccc(/C(O)=C(\C#N)c2nc3ccccc3n2C)cc1	-12	3	-44	-21	3%
Cc1cc(C(C)(C)C)cc(S(=O)(=O)NCCO)c1C	0.0	-19	-16	2	0%
CCCCN1CC[C@H]2C=CC[C@@H](C(=O)NCCc3ccccc3)[C@H]2C1=O	2.0	-9	nt	nt	-4%
CCc1nnc(NC(=O)c2csc3c2CCC(C)C3)s1 (configuration not stated)	-3.6	4	nt	-7	-2%
COc1ccc(C2C(C(C)=O)=C(O)C(=O)N2c2cccnc2)cc1OC (configuration not stated)	1.8	-1	-29	-2	-1%
(listing goes on)
SMILES	RecA splice inh	Mtb bLac sens	YopH PTP inh	Arbovirus anti	Mtb H37Rv	others
COc1ccc(/C=C2/SC(=S)N(CCCC(=O)N3CCN(C)CC3)C2=O)cc1	9.4	4	nt	nt	nt
CCc1nonc1NC(=O)c1oc2cc(Br)ccc2c1C	2.4	3	nt	nt	nt
Cc1cccc(N(C)C(=O)c2cc(S(=O)(=O)N3CCCC3)cn2C)c1	-1.1	-4	nt	nt	nt
O=C(Nc1cccn(Cc2ccc(F)cc2)c1=O)NC1CCCCC1	5.2	4	-117	4	-7%
Cc1ccc(C)c(-c2nnc(NC(=O)CCS(=O)(=O)c3ccccc3)o2)c1	-1.7	45	nt	nt	nt
CC(=O)NC(CC(=O)OCC(=O)NCCc1ccccc1)c1ccccc1 (configuration not stated)	0.1	-8	nt	nt	nt
CC(C)/C=N\NC(=O)CCCCC(=O)N/N=C/C(C)C	-2.7	3	-34	-8	2%
COc1cccc(/C=N/c2nc3ccccc3[nH]2)c1O	-3.3	-9	nt	nt	nt
CSc1nsc(SCC(=O)Nc2ccc(Br)cn2)n1	6.5	100	-33	18	?
CCCCCC(O)(c1ccccc1)C(CN1CCOCC1)c1ccccc1 (configuration not stated)	12	14	nt	nt	nt
CCOc1ccccc1OCCNC1CCCC1	1.8	0	-12	2	-3%
Cc1ccc(C(O)P(=O)(OC2CCCCC2)OC2CCCCC2)cc1 (configuration not stated)	0.8	9	-20	-18	9%
COc1cccc(C2(O)CCN(C(=O)c3cccs3)CC2)c1	-1.8	-2	-35	-4	0%	Arbovirus anti repeat=5
CCOc1ccc(/C=N\NC(=O)CC(=O)NCCc2ccccc2)cc1	0.6	5	nt	nt	nt
c1ccc(-c2nnc(OCCN3CCOCC3)c3ccccc23)cc1	0.5	4	-8	2	-4%
O=C(Nn1cnnc1)c1cc2c(s1)CCCCC2	nt	6	-17	6	nt
Cc1nnc(SCc2cc([N+](=O)[O-])cc3c2OCOC3)n(N)c1=O	-0.4	-1	nt	-7	-5%
Oc1ccc(-c2nnc(Nc3cccc(O)c3)c3ccccc23)cc1	4.8	-10	nt	nt	4%
Cc1ccc2nc(SCC(=O)N3CC(C)OC(C)C3)nc(=O)n2c1 (configuration not stated)	-1.6	-5	nt	nt	nt
COc1ccc(-c2noc3c2-c2nc(-c4ccccc4F)sc2CC3)cc1	0.6	0	nt	nt	nt
COc1ccc(OCC(=O)Nc2ccc(N3CCOCC3)cc2)c([N+](=O)[O-])c1	4.3	82	nt	6	7%
O=C(COC(=O)CNC(=O)C1CCCCC1)Nc1ccc2c(c1)OCCO2	-0.5	3	nt	2	1%
O=C(NNC(=O)C1CCCO1)c1ccc(Br)cc1 (configuration not stated)	1.7	-3	-1	5	3%
S=C1NCCNC(=S)NCCOCCOCCOCCN1	-0.1	15	nt	2	-2%
Cc1c(C(=O)N(Cc2ccc(N(C)C)cc2)C2CCS(=O)(=O)C2)oc2ccccc12 (configuration not stated)	6.4	6	nt	nt	7%
(list continues)
SMILES	RecA splice inh	Mtb bLac sens	YopH PTP inh	Arbovirus anti	Mtb H37Rv	others
CCN(CC)S(=O)(=O)c1ccc(-c2nnc(SCC(=O)Nc3ccc(OC)c(OC)c3)o2)cc1	0.1	-9	-1	4	-6%
COC(=O)c1ccc(C(=O)OC)c(NC(=O)COC(=O)C23CC4CC(CC(O)(C4)C2)C3)c1	0.0	-6	-48	4	-11%
O=C(CN1C(=O)/C(=C/c2cccc(Br)c2)SC1=S)Nc1cccnc1	8.0	-2	nt	-2	-1%
O=C(N/N=C/c1c(Cl)cccc1Cl)c1ccccc1F	-0.7	0	-31	-4	65%
CC(NC(=O)c1ccc(N)cc1)c1ccccc1 (configuration not stated)	2.5	9	nt	4	4%
CC(C)(C)c1ccc(C(=O)Nc2ccc(C=C(C#N)C#N)cc2)cc1	5.1	45	8	-20	6%
CCc1ccc(NC(=O)CNC(=O)[C@@H]2Cc3ccccc3CN2C(=O)OC(C)(C)C)cc1	1.2	1	nt	nt	nt
COCCCNC(=O)C1CCC(CNS(=O)(=O)c2ccc(C)cc2)CC1 (configuration not stated)	-4.0	13	nt	0	-2%
O=C(NCCN1CCN(c2ccc([N+](=O)[O-])cc2)CC1)NCc1ccccc1	-1.9	1	nt	nt	nt

Grouped by structure, the compounds so far containing two or more sulfur atoms (eleven)
SMILES	RecA splice inh	Mtb bLac sens	YopH PTP inh	Arbovirus anti	Mtb H37Rv	others
Cc1nc(SCC(=O)c2ccc(Cl)s2)c2oc3ccccc3c2n1	-3.5	18	-45	8	-4%
COc1ccc(C2SCCN2C(=S)Nc2cccc(C(F)(F)F)c2)cc1 (configuration not stated)	0.6	8	-1	-15	3%
O=C(NCCc1ccccc1)C(NS(=O)(=O)c1cccc2nsnc12)c1ccccc1 (configuration not stated)	5.5	6	-30	-3	-2%
COc1ccc(NC(=S)NNS(=O)(=O)c2ccc3ccccc3c2)c(OC)c1	-4.4	1	nt	-3	0%
CC(=O)Nc1ccc(S(=O)(=O)/N=C2/NC(=O)/C(=C\c3ccco3)S2)cc1	1.5	-5	nt	10	-8%
CCc1nnc(NC(=O)c2csc3c2CCC(C)C3)s1 (configuration not stated)	-3.6	4	nt	-7	-2%
COc1ccc(/C=C2/SC(=S)N(CCCC(=O)N3CCN(C)CC3)C2=O)cc1	9.4	4	nt	nt	nt
CSc1nsc(SCC(=O)Nc2ccc(Br)cn2)n1	6.5	100	-33	18	?
S=C1NCCNC(=S)NCCOCCOCCOCCN1	-0.1	15	nt	2	-2%
CCN(CC)S(=O)(=O)c1ccc(-c2nnc(SCC(=O)Nc3ccc(OC)c(OC)c3)o2)cc1	0.1	-9	-1	4	-6%
O=C(CN1C(=O)/C(=C/c2cccc(Br)c2)SC1=S)Nc1cccnc1	8.0	-2	nt	-2	-1%

Screening data (PubChem)

These rows are one share of the data; the hit share may differ from the screen's.
